VDR inhibitor: vitamin D3 receptor (human) inhibition; P11473; VDR-SRC2-3 peptide fluorescence polarization, 2 h; 400,000 tested, 0.93% active; Potency, µM, inactives show max response, negative = inhibition, actives largely listed as inhibitors; active = well fitted inhibition curve with a large enough effect; inconclusive = small, poorly fitted or top-dose-only effect, or another doubt; inactive = no such curve, though single readings can be large or run the other way; also: series mostly up to about 120 µM
Target sequence (P11473 whole entry, looked up): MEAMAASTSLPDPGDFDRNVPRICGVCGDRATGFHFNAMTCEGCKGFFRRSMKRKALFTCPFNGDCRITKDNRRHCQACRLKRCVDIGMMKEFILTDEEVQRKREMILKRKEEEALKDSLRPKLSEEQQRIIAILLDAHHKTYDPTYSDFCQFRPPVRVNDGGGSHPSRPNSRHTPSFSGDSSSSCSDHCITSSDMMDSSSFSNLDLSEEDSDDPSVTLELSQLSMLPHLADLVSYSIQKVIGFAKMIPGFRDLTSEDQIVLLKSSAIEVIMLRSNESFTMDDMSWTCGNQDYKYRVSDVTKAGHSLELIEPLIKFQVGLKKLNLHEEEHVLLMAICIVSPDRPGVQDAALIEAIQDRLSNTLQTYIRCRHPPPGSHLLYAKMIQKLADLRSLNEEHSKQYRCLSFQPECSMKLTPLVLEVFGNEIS
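Measured by FP: displacement of SRC2-3 coactivator peptide from VDR by library compounds, following a two-hour ambient incubation.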
Active calls of the source: *; & = joins results of further samples. % is scaled to controls: 0 for no effect and ±100 for the full control effect; potency is read from the fitted curve at half-maximal effect.

Start of the data: the first 3 compounds, ahead of the listing:
Screening CCOC(=O)C1=C(C)N(C)C(C)=C(C(=O)OCC)C1c1ccsc1 returned VDR inhibitor 7%.
`Oc1cccc(O)c1` gave VDR inhibitor -1%&-6%.
Screening Fc1cccc(CSc2ccc3nnc(-c4cccnc4)n3n2)c1 returned VDR inhibitor -12%.

The listing, from the start:
Screening CCOC(=O)C1=C(C)N(C)C(C)=C(C(=O)OCC)C1c1ccsc1 returned VDR inhibitor 7%.
`Oc1cccc(O)c1` gave VDR inhibitor -1%&-6%.
Screening Fc1cccc(CSc2ccc3nnc(-c4cccnc4)n3n2)c1 returned VDR inhibitor -12%.
Screening Cc1ccc(C(=O)c2ccccc2C(=O)OCC(=O)NC(=O)NC(C)(C)C)cc1 returned VDR inhibitor -8%.
Screening CCOC(=O)c1ccc(N2C(=O)C(O)=C(C(C)=O)C2c2ccccc2)cc1 (stereo not given) returned VDR inhibitor 4%.
Screening CC(=O)c1ccc(N2CCN(C(=O)c3ccc(C(=O)c4ccccc4)cc3)CC2)cc1 returned VDR inhibitor 13%.
`CCOC(=O)C1CCN(c2ccc([N+](=O)[O-])cc2)CC1` gave VDR inhibitor 5%.
For Cc1cc(OCCn2cnc3ccccc3c2=O)ccc1[N+](=O)[O-] the results were VDR inhibitor -12%.
`CC1OC(OC2C(Oc3c(-c4ccc(O)cc4)oc4cc(O)cc(O)c4c3=O)OC(COC3O[C@@H](C)[C@H](O)[C@@H](O)C3O)C(O)C2O)C(O)C(O)C1O` (stereo not given in full) gave VDR inhibitor -15%.
Screening O=C(CN(C(=O)c1csnn1)c1cccc(F)c1)NCc1ccc2c(c1)OCO2 returned VDR inhibitor 8%.
Screening CCOC(=O)c1sc(=NC(=O)C2CC2)n(C)c1C returned VDR inhibitor -4%.
C=CCNC(=O)c1ccc2c(c1)S(=O)(=O)c1ccccc1C2=O was read as VDR inhibitor -11%.
C=CCN=C(CC)C1=C(O)CCCC1=O was read as VDR inhibitor 27%.
`O=C1CCN(Cc2ccc([N+](=O)[O-])cc2)CCN1CCO` gave VDR inhibitor 10%.
Screening COc1cccc(N2CCN(Cc3nc4ccccc4c(=O)[nH]3)CC2)c1 returned VDR inhibitor 2%.

Random excerpt: 3 records from the list
`Oc1cccc(O)c1` gave VDR inhibitor -1%&-6%.
Screening Cc1ccc(C(=O)c2ccccc2C(=O)OCC(=O)NC(=O)NC(C)(C)C)cc1 returned VDR inhibitor -8%.
Screening CCOC(=O)C1=C(C)N(C)C(C)=C(C(=O)OCC)C1c1ccsc1 returned VDR inhibitor 7%.

Carrying on:
`COc1ccc(CN(C(=O)c2cc3ccccc3oc2=O)C2CCS(=O)(=O)C2)cc1OC` (stereo not given) gave VDR inhibitor 3%&0%.
`O=[N+]([O-])c1ccccc1N/N=C/c1cc2ccccc2nc1Cl` gave VDR inhibitor -7%.
For CC(=O)c1ccc2noc(-c3ccccc3)c2c1 the results were VDR inhibitor inconclusive.
Screening C[C@H](CO)N1C[C@H](C)[C@@H](CN(C)S(=O)(=O)c2cn(C)cn2)Oc2c(NS(=O)(=O)c3ccccc3)cccc2C1=O returned VDR inhibitor 2%.
Screening Cc1ccc2occ(/C=N/NC(=O)c3ccccc3O)c(=O)c2c1 returned VDR inhibitor 11%.
For Cc1cc2ccccc2n1CCNC(=O)c1cccc(Br)c1 the results were VDR inhibitor inconclusive.
`CCc1nnc2c(N3CCN(c4cccc(C)c4)C(C)C3)nc3ccccc3n12` (stereo not given) gave VDR inhibitor 13%.
Cc1ccc(F)c(NC=C2C(=O)OC(C)(C)OC2=O)c1 was read as VDR inhibitor 4%.
CCOc1cc(C(C(=O)NCC2CCCO2)N(C(=O)Cn2nnc3ccccc32)c2ccccc2OC)ccc1O (stereo not given) was read as VDR inhibitor 13%.
For CCC(C)NC(=O)C1CCC(=O)N1CCc1ccccc1 (stereo not given) the results were VDR inhibitor -6%.
COC(=O)CCNS(=O)(=O)c1ccc2ccccc2c1 was read as VDR inhibitor -3%.
Screening COc1ccc2[nH]cc(CCNC(=O)C3CC(=O)N(c4ccc(Cl)cc4)C3)c2c1 (stereo not given) returned VDR inhibitor 8%.
For CCOC(=O)N1CCC(Nc2c(Nc3ccc(C)c(C)c3)c(=O)c2=O)CC1 the results were VDR inhibitor 21%.
CCc1ccccc1NC(=O)N[C@H](C(=O)O)C(C)CC (stereo not given in full) was read as VDR inhibitor 19%.
Cn1c(=O)c(CCc2ccccc2)nc2cncnc21 was read as VDR inhibitor -11%.

Grouped by structure, the entries above with a nitro group on carbon
`CCOC(=O)C1CCN(c2ccc([N+](=O)[O-])cc2)CC1` gave VDR inhibitor 5%.
For Cc1cc(OCCn2cnc3ccccc3c2=O)ccc1[N+](=O)[O-] the results were VDR inhibitor -12%.
`O=C1CCN(Cc2ccc([N+](=O)[O-])cc2)CCN1CCO` gave VDR inhibitor 10%.
`O=[N+]([O-])c1ccccc1N/N=C/c1cc2ccccc2nc1Cl` gave VDR inhibitor -7%.

Following part:
`O=C(/C=C/c1ccc(S(=O)(=O)N2CCOCC2)cc1)NC(=S)NCCCn1ccnc1` gave VDR inhibitor 15%.
Screening O=c1ccccn1Cc1c(F)cccc1Cl returned VDR inhibitor -21%.
`Cc1ccc(C(=O)NCc2ccccc2)cc1NC(=O)c1nsc2ccccc12` gave VDR inhibitor 9%.
Screening O=C(NC(=S)NCCc1ccccc1)C1CCCCC1 returned VDR inhibitor -3%.
`Cc1ccnc(N2C(=O)CSC2c2ccc(Cl)cc2)c1` (stereo not given) gave VDR inhibitor -3%.
`COc1ccc(C2=NC(C)(C)N(CC(=O)Nc3cccc(C)c3)C2=O)cc1` gave VDR inhibitor 10%.
Screening NC(=O)CSc1ccc(S(=O)(=O)N2CCCCC2)cn1 returned VDR inhibitor 5%.
COc1cc(/C=C2/C(=O)N=C(N)N2C)cc(OC)c1OC was read as VDR inhibitor 3%.
Screening CCN(CC)C(=O)CN1CCN(Cc2ccc3c(c2)OCO3)CC1 returned VDR inhibitor -4%.
`O=C1C=C(O)C(n2cncn2)C(c2ccc(F)cc2)C1` (stereo not given) gave VDR inhibitor 6%.
For CCOC(=O)c1cc(-c2ccc(F)cc2)n(CC(=O)Nc2nccs2)c1C the results were VDR inhibitor -21%.
Screening O=S(=O)(c1ccc(-c2csc(=Nc3ccc(OC(F)(F)Cl)cc3)n2CCCO)cc1)N1CCCC1 returned VDR inhibitor -3%.
For COc1ccc(N2C(=O)/C(=C\c3ccco3)N=C2SCC(=O)NC(C)(C)C)cc1Cl the results were VDR inhibitor 0%.
For CC(=O)Nc1ccc(S(=O)(=O)NNc2cccc(C)c2)cc1 the results were VDR inhibitor 79µM*.
Screening COc1ccc(-c2cn3nc(N4CCCC(C(=O)Nc5cc(C)ccc5C)C4)sc3n2)cc1 (stereo not given) returned VDR inhibitor 14%.
CC[C@]12c3[nH]c4ccc(OC)cc4c3CCN1C(=O)C(CC(=O)NCCCN(C)C)C[C@@H]2C(=O)N1CCN(C(=O)C2CC2)CC1 (stereo not given in full) was read as VDR inhibitor 2%.
COc1cc(CN2CCCCCC2)cc(Br)c1O was read as VDR inhibitor 16%.
`COC(=O)c1ccccc1NC(=O)C1CCCN(S(=O)(=O)c2ccc(OC)cc2)C1` (stereo not given) gave VDR inhibitor 6%.
For O=C(CCN1CCN(c2ccccc2)CC1)N/N=C/c1ccc(O)c(O)c1O the results were VDR inhibitor -15%.
Screening Cc1cc(Br)cc(Cl)c1OCC(=O)N1CCN(C(=O)c2ccco2)CC1 returned VDR inhibitor -1%.
`CC(C)c1ccc2oc(-c3ccc(NC(=O)c4cc5ccccc5o4)cc3)nc2c1` gave VDR inhibitor 10%.
For CC(=O)c1ccc(NC(=O)c2c(C)nn(-c3ccccc3)c2Cl)cc1 the results were VDR inhibitor -28%.
`COc1ccc(S(=O)(=O)N(C)CC(=O)N2CCN(C)CC2)cc1Cl` gave VDR inhibitor -8%.
Screening COc1ccc(C)cc1-n1c(-c2ccc(Cl)cc2)cc2c1CC(C)(C)CC2=O returned VDR inhibitor 17%.
For CC(=O)N1c2ccc(S(=O)(=O)N3CCCC3)cc2CC1C(=O)Nc1cc(C)cc(C)c1 (stereo not given) the results were VDR inhibitor 14%.
Screening CCCCn1c(=O)c2oc3ccccc3c2n(Cc2ccc(OC)cc2)c1=O returned VDR inhibitor 3%.
CN(CCN1CCOCC1)Cc1nc(-c2ccc(Cl)cc2)no1 was read as VDR inhibitor 7%.
For CCN(CC)CCn1c(=S)[nH]c2ncccc2c1=O the results were VDR inhibitor -9%.
`CCOc1cc(/C=C(\C#N)C(=O)Nc2ccccc2C)ccc1OCc1cc(=O)n2nc(CC)sc2n1` gave VDR inhibitor -14%.
For CC(=O)c1c(C)nc2ccc(Br)cc2c1C(=O)O the results were VDR inhibitor -12%.
For CC1(C(=O)O)CCC(C(=O)Nc2ccc(Cl)c(Cl)c2)C1(C)C (stereo not given) the results were VDR inhibitor 1%.
`CNc1cc(F)nc(F)n1` gave VDR inhibitor -29%.
`CCCN1CCN(C(=O)c2cn(CC(C)C)c(=O)c3cc(OC)c(OC)cc23)CC1` gave VDR inhibitor -3%.
Screening CCc1cccc(C)c1NC(=O)CC1Oc2ccc(C)cc2NC1=O (stereo not given) returned VDR inhibitor -16%&-7%.
`O=C(NCC1CCOCC1)c1cc(COc2cccc(C(F)(F)F)c2)on1` gave VDR inhibitor -16%.
`CN(C(=O)c1ccc(NC(=O)C2CCCN(C(=O)OC(C)(C)C)C2)cc1)C1CCCC1` (stereo not given) gave VDR inhibitor -2%.
`CC(C)CC(C)NNC(=O)c1cc2ccccc2[nH]1` (stereo not given) gave VDR inhibitor -1%.
Screening CCOC(=O)C1CCN(S(=O)(=O)c2csc(C(N)=O)c2)CC1 returned VDR inhibitor 26%&13%.
C/C(CC(=O)NC12CC3CC(CC(C3)C1)C2)=N\NC(=O)c1cnccn1 was read as VDR inhibitor -27%.
For CCn1c(COc2cccc(C)c2)nnc1SCC(=O)N1CCCC1 the results were VDR inhibitor -1%.
`CCN(CC)C(=O)NC1CCCCCCC1` gave VDR inhibitor -9%.
For Cc1cccc(C(=O)NC(=S)Nc2ccccc2C(=O)O)c1 the results were VDR inhibitor -11%.
O=C(Nc1cccc2ccccc12)c1cccc(F)c1 was read as VDR inhibitor -14%.
CCOc1ccc(NC(=O)c2ccc(CNc3c(NC4CCCCC4)c(=O)c3=O)cc2)cc1 was read as VDR inhibitor -17%.
CCOc1ccc(CN2CCN(C/C=C/c3ccc(OC)cc3)CC2CCO)cc1 (stereo not given) was read as VDR inhibitor -15%.
`O=C(CCCSc1ccccc1)Nc1ccc(Cl)c(S(=O)(=O)N2CCOCC2)c1` gave VDR inhibitor -1%.
`Cc1ccc(CN2C(=O)N/C(=C\c3cccn3-c3cccc(C(=O)O)c3)C2=O)cc1` gave VDR inhibitor 2%.
`Cc1ccc(S(=O)(=O)NC(C)(C)CSc2nncn2C)cc1` gave VDR inhibitor -12%.
Screening CCN(C(=O)COc1ccc(N(C)S(=O)(=O)c2ccc(NC(C)=O)cc2)cc1)C1CCCCC1 returned VDR inhibitor -16%.
CCNC(=S)NNC(=O)c1cccn(Cc2ccc(Cl)cc2Cl)c1=O was read as VDR inhibitor -3%.
O=C(Cn1ccc([N+](=O)[O-])n1)NCc1nc2ccccc2[nH]1 was read as VDR inhibitor -14%.
Screening O=C(CCc1nnc(CCc2ccccc2)o1)N1CCCCC1CCn1cccn1 (stereo not given) returned VDR inhibitor 1%.
`O=C(Cn1nnc2ccccc21)NNC(=O)c1ccccc1` gave VDR inhibitor 5%.
For CC1CC(C)CN(C(=O)CN2CCN(Cc3ccc(Cl)cc3)C2=O)C1 (stereo not given) the results were VDR inhibitor 10%.
For COc1ccccc1-n1cc(C(=O)NCC(=O)N2CCN(Cc3ccccc3)CC2)c2ccccc2c1=O the results were VDR inhibitor -6%.
`CCN1CCN(CCCNC(=O)c2cnn(-c3ccc(OC)cc3)c2C2CCN(C(=O)OC(C)(C)C)CC2)CC1` gave VDR inhibitor 11%.
`O=C(CNS(=O)(=O)c1ccccc1)OCC(=O)c1cccc([N+](=O)[O-])c1` gave VDR inhibitor 0%.
Screening Cc1ccc(Nc2nc(N)c([N+](=O)[O-])c(NCc3ccco3)n2)cc1 returned VDR inhibitor -9%.
Screening COc1cccc(C(=O)CN2CCC(NC(=O)NC3CCCCC3)CC2)c1 returned VDR inhibitor 3%.
`NCCSc1c(-c2ccc(Cl)cc2)[nH]c2ccccc12` gave VDR inhibitor 8%.

Overlap with the part before: four compounds, followed by the next part.
`O=C(CNS(=O)(=O)c1ccccc1)OCC(=O)c1cccc([N+](=O)[O-])c1` gave VDR inhibitor 0%.
Screening Cc1ccc(Nc2nc(N)c([N+](=O)[O-])c(NCc3ccco3)n2)cc1 returned VDR inhibitor -9%.
Screening COc1cccc(C(=O)CN2CCC(NC(=O)NC3CCCCC3)CC2)c1 returned VDR inhibitor 3%.
`NCCSc1c(-c2ccc(Cl)cc2)[nH]c2ccccc12` gave VDR inhibitor 8%.
For CCNc1ccc(S(=O)(=O)N(C)C)cc1[N+](=O)[O-] the results were VDR inhibitor -17%.
For CCc1ccc(CN(C)Cc2nc(Cc3ccc(OC)c(OC)c3)no2)nc1 the results were VDR inhibitor -12%.
`CCOC(=O)c1cc(-c2ccco2)nc2c1c(C)nn2-c1ccccc1` gave VDR inhibitor -11%.
OCC1(Cc2ccccc2C(F)(F)F)CCN(Cc2ccncc2)CC1 was read as VDR inhibitor 5%.
CCOC(=O)c1sc(=N)n(-c2ccc(OC)cc2)c1C was read as VDR inhibitor -6%.
For CSc1nc(-c2ccc(Cl)cc2)nn1C(=O)c1ccccc1 the results were VDR inhibitor inconclusive.
Screening Cc1ccc(N(CC(O)CN(C)C)S(=O)(=O)c2ccccc2)cc1 (stereo not given) returned VDR inhibitor 9%.
`O=C(CN(C(=O)Cn1nnc(-c2cccs2)n1)c1ccc2c(c1)OCCO2)NCc1ccccc1` gave VDR inhibitor 3%.

Not all compounds are listed (hit frequency here may not be typical).
